High-throughput results from PubChem.
ClpP mod – qHTS Assay for Activators of ClpP; Potency, µM (highest dose often 57.5 µM), inactives show at the highest dose activity change, negative = active; ATP-dependent Clp protease proteolytic subunit (Bacillus subtilis (strain 168)), P80244; AID 651965, 2013; purified B. subtilis ClpP, FRET peptide cleavage, 20 min; actives 1.9% (n = 340,000); active = well fitted falling curve with a large enough effect; inconclusive = small, poorly fitted or top-dose-only effect; inactive = no such curve, though single readings can be large or run the other way; also: potency is read from the fitted curve at half-maximal effect; the source files actives as falling curves though it sought activators and does not explain the sign; nearly all actives have a fitted effect of over 65% in size; many hits overshoot -100%
Target sequence (P80244 whole entry, looked up): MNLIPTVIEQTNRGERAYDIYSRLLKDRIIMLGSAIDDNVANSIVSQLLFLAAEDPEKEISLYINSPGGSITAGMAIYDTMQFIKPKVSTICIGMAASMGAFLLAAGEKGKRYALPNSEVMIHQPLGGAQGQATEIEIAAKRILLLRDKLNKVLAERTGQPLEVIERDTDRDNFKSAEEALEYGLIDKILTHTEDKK
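Purified B. subtilis ClpP, 10 microg/mL final in Tris/HCl pH8 with KCl, BSA, glycerol and Tween-20, cleaved an Abz/nitrotyrosine-quenched decapeptide. Fluorescence (ex 320, em 430) was read at 0 and 20 min at room temperature. Delta was normalized to 5.8 microM ADEP and DMSO/no-enzyme controls.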
Menin MLL FP FL – qHTS Assay for Inhibitors Targeting the Menin-MLL Interaction in MLL Related Leukemias: Competition With Fluorescein Labeled MLL-derived Peptide; FP activity change, % at 61.4 µM; AID 1766, 2009; 290,000 tested, under 10 active; Fluorescence polarization, fluorescein-MLL peptide displacement from menin; inconclusive = falling polarisation curve, or a change in total fluorescence; inactive = total fluorescence flat and polarisation flat or rising; no compound was filed as active; the % refers to the polarisation; negative = inhibition;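 also: % of control where 0% means no effect; inhibitors lower the polarisation; unlabelled MLL peptide was the positive control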
gsp agonist – qHTS for Agonist of gsp, the Etiologic Mutation Responsible for Fibrous Dysplasia/McCune-Albright Syndrome: qHTS. gsp mutant cells, cAMP HTRF, 30 min; control for the full effect not named in the record. Potency, µM (titrated, usually from 76.9 µM), inactives show at the highest dose activation (cAMP increase), usual class: activators. actives 0.13% (n = 340,000); active = well fitted activation curve with a large enough effect; inconclusive = small, poorly fitted or top-dose-only effect, or another doubt; inactive = no such curve, though single readings can be large or run the other way; cell line not stated here;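 also: phosphodiesterase inhibitor Ro 20-1724 added with compounds to block cAMP breakdown; potency is read from the fitted curve at half-maximal effect; nearly all actives have a fitted effect of over 60% in size; about a fifth of the inactives were tested at one dose only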
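Cells stably selected in G418 were plated at 2000/well, grown 16-24 hr, then given compounds in DMSO with the PDE inhibitor […] (300 uM solution added) for 30 min at 37C; cAMP was read by HTRF.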
gsp antagonist – qHTS for Antagonists of gsp, the Etiologic Mutation Responsible for Fibrous Dysplasia/McCune-Albright Syndrome: qHTS | gsp-mutant cells, cAMP HTRF, 30 min; control for the full effect not named in the record | Potency, µM (titrated, usually from 76.9 µM), for the others: top-dose activity change, negative = inhibition, usual class: inhibitors | actives 0.4% (n = 340,000); active = falling curve of any shape with a large fitted effect; inconclusive = falling curve, mostly with a smaller effect; inactive = flat or rising curve; cell line not stated here;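 also: intracellular cAMP measured with PDE inhibitor Ro 20-1724 present during compound exposure; potency is read from the fitted curve at half-maximal effect; % is scaled to controls: 0 for no effect and ±100 for the full control effect; nearly all actives have a fitted effect of over 65% in size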
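HTRF cAMP read-out (cAMP-d2 plus anti-cAMP antibody-K in lysis buffer, 30 min RT). Before lysis, cells are exposed to compounds with […] for 30 min at 37C in DPBS containing Ca/Mg, BSA and Tween 20.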
Sfp PPTase inh – qHTS Assay for Inhibitors of Bacillus subtilis Sfp phosphopantetheinyl transferase (PPTase); Biochemical Sfp PPTase activity, qHTS; 4'-phosphopantetheinyl transferase ffp (Bacillus subtilis), Q9F4F7; Potency, µM, without a hit: max response, negative = inhibition, hits mostly inhibitors; actives 3.5% (n = 310,000); active = well fitted inhibition curve with a large enough effect; inconclusive = small, poorly fitted or top-dose-only effect, or another doubt; inactive = no such curve, though single readings can be large or run the other way;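 also: the enzyme is Sfp with the accession as filed and its product quenches rhodamine fluorescence; potency is read from the fitted curve at half-maximal effect; 0% = enzyme reaction without inhibitor and -100% = no enzyme wells; top concentration of the series not given in the record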
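Compounds were incubated with enzyme (final 15 nM) for 15 min at room temperature before substrate addition started the reaction. Fluorescence at 525 nm excitation, 598 nm emission was recorded immediately and after 30 minutes.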
D2 ag – Beta-Arrestin HTS for Positive Allosteric Modulators of the Human D2 Dopamine Receptor: Agonists. actives 0.084% (n = 360,000). activation, % (concentration not given with the values). DiscoveRx PathHunter D2 beta-arrestin, luminescence, 90 min; 100% = 57 uM dopamine signal. D(2) dopamine receptor (Homo sapiens), P14416; in the data active = activation above about 40%; inconclusive = about 15% to 40%; inactive = below about 15%; also: compound concentration not given in the record; the text of the record calls up to 30% inactive
Target sequence (P14416 whole entry, looked up): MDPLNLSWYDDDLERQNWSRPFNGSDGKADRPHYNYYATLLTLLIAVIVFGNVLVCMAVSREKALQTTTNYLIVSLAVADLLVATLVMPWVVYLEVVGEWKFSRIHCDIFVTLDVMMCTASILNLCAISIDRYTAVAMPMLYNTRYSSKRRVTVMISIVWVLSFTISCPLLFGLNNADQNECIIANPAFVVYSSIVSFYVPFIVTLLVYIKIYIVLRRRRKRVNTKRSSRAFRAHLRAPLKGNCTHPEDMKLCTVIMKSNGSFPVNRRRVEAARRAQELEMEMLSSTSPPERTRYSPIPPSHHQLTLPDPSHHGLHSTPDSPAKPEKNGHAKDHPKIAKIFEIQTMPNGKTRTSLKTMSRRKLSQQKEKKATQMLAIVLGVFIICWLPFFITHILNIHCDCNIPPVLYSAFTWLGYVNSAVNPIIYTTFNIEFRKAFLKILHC
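Agonist mode: compounds alone added to overnight-plated D2 PathHunter cells for 90 min at 37 C, with 57 uM final dopamine (EC100) defining full response. Beta-arrestin recruitment detected by chemiluminescent reagent, read after 1 h at ambient temperature.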
PINK1 modulator – A Quantitative High throughput Screen to Identify Chemical Modulators of PINK1 Expression | actives 0.2% (n = 410,000) | PINK1 immunofluorescence, high-content cytometry, 24 h | AID 624263, 2012 | Potency, µM (highest dose often 76.6 µM), without a hit: at the top dose activation (PINK1 increase), usual class: activators; active = well fitted activation curve with a large enough effect; inconclusive = small, poorly fitted or top-dose-only effect; inactive = flat fitted curve, though single readings scatter; cell line not stated here;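 also: potency is read from the fitted curve at half-maximal effect; % of control where 0% means no effect; nearly all actives have a fitted effect of over 65% in size; a mitochondrial uncoupler was the plate control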
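Fluorescence from anti-PINK1 antibody, together with nuclear and cell stains, was scanned on a laser-scanning cytometer. Before staining, stable-line cells were incubated 24 hours with compounds at 5 concentrations; primary antibody 12 h at 10 degrees C.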
Active calls of the source: *; ? = inconclusive; / = no result given; [ ] = remark or other dose. Rows are unselected. Share with any hit: about 5.1%.

entry	molecule	ClpP mod	Menin MLL FP FL	gsp agonist	gsp antagonist	Sfp PPTase inh	D2 ag	PINK1 modulator
1	COc1ccc(CCn2c(NN=C(C)C)nc3c2c(=O)[nH]c(=O)n3C)cc1	?	8.0	-80.7%[inhibitor]	-7.8%	56.2µM*	0.5	2.3%
2	O=[N+]([O-])c1cc2c(cc1/C=N/Nc1nc(N3CCCC3)nc(N3CCCC3)n1)OCO2	/	5.7	4.5%[15.4 µM]	12.1%	-3.9%	-5.1	2.6%
3	COc1ccc(NC(=S)Nc2ccccc2OC)c(OC)c1	/	-6.2	?	-6.1%	?	-2.7	1.4%
4	Cc1cccc(OCc2nc(-c3ccc(-n4cccc4)cc3)no2)c1	-12.5%	1.1	-17.4%	1.2%	-6.3%	0.0	18.2%
5	CC1(C)N=C(c2ccccc2)C(c2ccccc2)=N1	/	/	-36.4%[inhibitor]	12.1%	/	-2.2	-0.1%
6	CCN(CC)S(=O)(=O)c1ccc(N2CCOCC2)c(NC(=O)c2cnccn2)c1	-2.0%	5.5	47.0%[15.4 µM]	-4.2%	-16.8%	2.4	2.3%
7	ClCC1CN(Cc2ccccc2Cl)CCO1 (stereo unspecified)	-0.9%	1.3	3.2%	6.7%	18.1%	-5.1	3.3%
8	Cc1coc2cc3oc(=O)c(Cc4ccccc4)c(C)c3cc12	-15.7%	3.7	-43.8%	-8.7%	23.2%	-2.7	16.7%
9	COc1ccc(-c2cc(-c3ccco3)[nH]c(=O)c2C#N)cc1OC	4.2%	?	23.2%	-0.3%	22.4µM*	1.9	5.0%
10	COc1ccc(-c2cc(C(=O)NCc3ccco3)c3ccccc3n2)cc1OC	/	/	?	-3.9%	/	2.0	0.7%
11	COc1ccccc1N(C(=O)c1ccco1)C(C(=O)NC1CCCCC1)c1cc(OC)c(OC)c(OC)c1 (stereo unspecified)	/	/	22.2%	2.9%	2.8%	2.2	3.8%
12	COc1ccc(C(=O)CSc2nnc(NC(=O)C3CC(=O)N(c4cccc(OC)c4)C3)s2)cc1 (stereo unspecified)	-2.0%	9.4	29.6%	-6.9%	4.6%	-0.5	6.3%
13	Cc1csc(NC(=O)c2ccc3nc[nH]c3c2)n1	/	/	-0.3%	-2.7%	12.0%	1.6	0.3%
14	O=C(Nc1ccc(Cl)c([N+](=O)[O-])c1)c1ccco1	0.7%	-3.6	-12.2%	-15.9%	3.6%	-0.5	0.5%
15	Nc1ncc(Br)cc1S(=O)(=O)N1CCCCCC1	/	/	17.1%	-0.2%	-3.9%	1.2	2.4%
16	CC1(C)CC(NC(=O)C2CCC(=O)N(C3CC3)C2)CC(C)(C)C1 (stereo unspecified)	/	-1.8	-1.8%	-2.6%	5.3%	-0.9	0.7%
17	COc1cc(OC)cc(-c2nnc(Nc3nc4c(F)cccc4s3)o2)c1	?	5.7	?	-3.9%	5.3%	0.7	-7.7%[38.3 µM]
18	O=C(CC(=O)Nc1ccccc1[N+](=O)[O-])Nc1ccccc1[N+](=O)[O-]	/	5.6	15.3%[15.4 µM]	-13.1%	8.2%	-2.8	-0.6%
19	CC1CN(CCOc2ccccc2-c2ccccc2)CC(C)O1 (stereo unspecified)	-1.8%	7.1	-9.4%	5.2%	-51.5%	-6.0	5.3%
20	O=C(NCC(=O)N1CCN(C/C=C/c2ccccc2)CC1)c1ccc(OC(F)F)cc1	-1.6%	/	-38.4%	-2.6%	/	0.7	-1.3%
21	Cc1ccc(NC(=O)c2oc3ccccc3c2NC(=O)C2CCCO2)cc1C (stereo unspecified)	?	-0.9	-1.9%[15.4 µM]	?	-35.5%	-0.2	0.1%
22	Cc1ccc(C(O)c2ncc(-c3ccccc3Cl)[nH]2)c(C)c1 (stereo unspecified)	-0.6%	/	/	/	/	-1.7	2.7%
23	O=C(O)/C=C/c1cn(-c2ccccc2)nc1-c1cccc([N+](=O)[O-])c1	-0.4%	0.7	-8.7%	?	11.3%	-2.3	-0.1%
24	CSc1nc(=S)n(-c2cc(C)ccc2C)c(C)c1C(C)=O	-3.1%	14.2	8.5%[15.4 µM]	2.9%	-8.9%	2.5	0.5%
25	NC(=O)Cc1nc(-c2ccccc2)cs1	-2.2%	-0.7	2.6%	9.7%	3.1%	0.0	0.0%
26	Cc1cccc(NC(=O)Oc2ccc(Cl)c3cccnc23)c1	1.4%	/	-40.2%	/	/	-13.6	1.6%
27	CCN(CC)S(=O)(=O)c1ccc(Cl)c(NC(=O)c2ccc(C#N)cc2)c1	-2.8%	1.0	9.1%	-2.8%	8.9%	-0.3	0.4%
28	COc1ccc(-c2csc(NC(=O)Cc3ccccc3F)n2)c(OC)c1	/	/	0.3%[15.4 µM]	-1.7%	-1.6%	-1.9	2.3%
29	Cc1cccc(C)c1NC(=S)NN1CCN(C)CC1	-0.5%	0.7	18.7%	4.0%	-8.0%	-0.1	-0.6%
30	COc1ccc(CCNC(=O)CCCn2c(=S)[nH]c3cc4c(cc3c2=O)OCO4)cc1OC	1.9%	/	-40.9%	/	/	-1.5	6.1%
31	C(=C\c1ccccc1)/CN1CCN(C(c2ccccc2)c2nnnn2-c2ccc3c(c2)OCCO3)CC1 (stereo unspecified)	0.5%	/	/	/	/	-4.9	1.3%
32	C[C@H](CO)N1C[C@H](C)[C@@H](CN(C)C(=O)Nc2ccccc2F)Oc2ncc(Br)cc2C1=O	0.1%	/	-68.5%[inhibitor]	/	/	-3.3	-0.1%
33	O=C(COc1ccc(Cl)cc1Br)NC1CC1	-1.2%	/	-15.8%	5.6%	/	-5.3	-0.6%
34	Cc1cc(C)c(C)c(S(=O)(=O)Nc2ccccc2N2CCOCC2)c1C	-2.5%	/	-33.1%[inhibitor]	-23.1%	/	3.5	-0.8%
35	Cc1ccc(NC(=O)COc2ccccc2)c(NC(=O)c2ccccc2C)c1	1.5%	/	-33.6%[inhibitor]	5.2%	/	-2.7	2.9%
36	Cc1cc(C)c(C#N)c(SCC(=O)Nc2c(C)n(C)n(-c3ccccc3)c2=O)n1	/	/	-44.3%[inhibitor]	-6.5%	/	-2.5	-2.7%
37	C=CCOc1ccc2cccc(/C=N/NC(=O)c3cc4cc([N+](=O)[O-])ccc4s3)c2c1	0.8%	2.9	20.2%	-1.5%	3.6%	1.0	20µM*
38	CC1(C)C(=O)Nc2ccccc2N1C(=O)COC(=O)COc1cccc(C(F)(F)F)c1	?	/	-19.0%	4.9%	/	-1.9	-0.6%
39	CCOC(=O)N1CCC(NC(=O)CCC(=O)N2CC(C)Oc3ccc(Cl)cc32)CC1 (stereo unspecified)	2.3%	0.5	-32.2%	-0.7%	17.5%	-1.6	2.6%
40	O=C(CCC1CCCN(Cc2ccncc2)C1)NCc1ccc(F)c(F)c1 (stereo unspecified)	/	-0.8	9.0%[15.4 µM]	/	4.7%	1.0	2.4%
41	CCN(CC)CCN(C(=O)C1=COCCO1)c1nc2cc3c(cc2s1)OCO3	-0.1%	0.0	-19.4%	-8.0%	3.2%	-1.8	0.5%
42	Cc1cccc(C2c3[nH]c4ccccc4c3CCN2C(=O)c2ocnc2C)n1 (stereo unspecified)	/	-6.4	-1.2%[15.4 µM]	4.5%	-12.1%	0.1	1.5%
43	Cc1ccc(C)c(N2CCN(C(=O)CCCN3C(=S)NC(C)(C)CC3C)CC2)c1 (stereo unspecified)	?	0.0	5.2%[15.4 µM]	-18.8%	8.2%	-5.1	-0.1%
44	Cc1nc(N)[nH]c(=O)c1CCCNS(=O)(=O)c1ccc([N+](=O)[O-])cc1	-3.0%	/	-5.3%[15.4 µM]	12.6%	/	0.7	-1.4%
45	O=C(CN1CCN(CC(=O)Nc2ccccc2Cc2ccccc2)CC1)Nc1ccccc1Cl	/	1.3	23.3%	7.1%	-4.3%	3.9	8.9%
46	Cc1ccc(S(=O)(=O)N/N=C\c2ccc3c(c2)OCO3)cc1	-8.6%	1.1	-35.2%[inhibitor]	1.8%	7.2%	0.1	/
47	CCCOC(=O)/C(=C\C=C\c1ccccc1)NC(=O)c1ccccc1	/	2.4	23.8%	-5.4%	14.3%	-1.3	7.1%
48	Cn1c(COc2ccccc2)nnc1SCC(=O)Nc1ccc(N2CCOCC2)c(Cl)c1	0.5%	10.5	14.6%	-0.4%	15.3%	1.1	-15.2%[38.3 µM]
49	CC1CCCCN1c1nc(-c2ccncc2)nc2ccccc12 (stereo unspecified)	-7.4%	-2.0	-16.8%	4.2%	-14.4%	-0.3	-0.5%
50	COCCCN(Cc1ccco1)C(=O)Cn1ncc2c(=O)oc3ccc(C)cc3c21	-1.2%	1.5	14.7%	-16.5%	12.0%	-2.5	2.5%

Later entries.
entry	molecule	ClpP mod	Menin MLL FP FL	gsp agonist	gsp antagonist	Sfp PPTase inh	D2 ag	PINK1 modulator
51	COc1cc2c(cc1OC)CN(Cc1cccs1)CC2	-19.2%	1.2	22.8%	11.8%	-22.6%	-5.3	-0.1%
52	O=C(NCc1cccnc1)C(=O)NCC1OCCN1S(=O)(=O)c1ccccc1 (stereo unspecified)	-0.9%	0.8	12.4%	8.2%	8.9%	-9.3	0.3%
53	O=c1[nH]cnc2c1ncn2C1CCC(CO)O1 (stereo unspecified)	1.7%	/	/	/	/	-4.6	0.3%
54	COc1ccc(NC(=O)CNC(c2ccccc2)c2ccccc2)cc1Cl	/	-3.7	9.3%	-22.2%	-0.6%	-1.8	2.4%
55	Cc1ccc2c(c1)N(CC(=O)NC(C)CCc1ccccc1)C(=O)c1cccnc1O2 (stereo unspecified)	0.4%	-1.4	16.6%	-9.2%	9.2%	0.3	0.2%
